# CapD inh = Bacillus anthracis CapD inhibitors, primary screen, biochemical, fluorescence intensity; CapD gamma-glutamyltranspeptidase (Bacillus anthracis Ames Ancestor); purified CapD enzyme, fluorescence intensity read-out; hits give low values; some hits fall short of the stated cut; z-score (no concentration beside the values); actives 0.23% (n = 140,000);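 active = z-score under -4 in either of two replicates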;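 also: stock transfer was 100 nL into about 40 µL; score is relative to mean and spread of the plate; one replicate is shown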
# AID504770 = growth inhibition of E. coli YBA685, primary screen, V. cholerae RctB inhibitors; E. coli YBA685 rctB-dependent plasmid, OD600 growth, 3 h; hits give low values; z-score (no concentration beside the values); actives 0.27% (n = 130,000); AID 504770, 2011;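 active = z-score under -2 on both plates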;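 also: wells of about 30 µL received 100 nL stock; score is relative to mean and SD of the test wells; the first replicate is given; strong numbers were not always called active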
# * = called active by the depositor; nt = not tested or not shown; & = joins results of further samples.
SMILES,CapD inh,AID504770
Cc1cc(C(=O)NCc2ccc(F)cc2)n(-c2ccccc2)n1,-1.4,-0.95
O=C(NCCc1nc2ccccc2[nH]1)c1ccc(Cl)c(Cl)c1,48,-0.85
CC12CCC(O)(CC1)CC2=O,0.68,nt
CCCNC(=O)N1CCN(c2cccc(C(F)(F)F)c2)CC1,2.1,0.4
Cc1ccc(S(=O)(=O)CCSCc2csc3ccccc23)cc1,-0.42,-1.1
CC(C)(C)c1ccc(C(=O)CC(NCc2ccccc2)C(=O)O)cc1 (centres undefined),-0.48,-0.85
COCCN1C(=O)/C(=C\N2CCN(c3ccc(OC)cc3)CC2)C(=O)NC1=S,nt,-0.5
CC1Cc2ccccc2N1C(=O)Cn1c(=O)cc(O)c2ccccc21 (centres undefined),nt,0.15
CCCC(C)(COC(N)=O)COC(=O)NC(C)C (centres undefined),-0.045&0.36,0.05
COc1ccc2oc(=O)c(NC(=O)C3CCCCC3)cc2c1,1.6,0.15

# Full records, quoted from the list:
# Profile of CCCNC(=O)N1CCN(c2cccc(C(F)(F)F)c2)CC1 : CapD inh = 2.1; AID504770 = 0.4
# Profile of COc1ccc2oc(=O)c(NC(=O)C3CCCCC3)cc2c1 : CapD inh = 1.6; AID504770 = 0.15

# (cont.)
SMILES,CapD inh,AID504770
COc1ccc(C2C(C(=O)O)CCC(=O)N2c2ccc(OC)cc2)cc1 (centres undefined),0.06,-0.35
N#CCCn1[nH]c(=O)ccc1=O,nt,-1.4
COc1ccnc(N2CCN(C(=O)OC(C)(C)C)CC2)n1,nt,-1.2
Cc1c(O)ccc2c(CN(C)CC3COc4ccccc4O3)cc(=O)oc12 (centres undefined),nt,2.9
O=C(Cn1ncn2c(cc3sccc32)c1=O)NC1CCCc2ccccc21 (centres undefined),-0.09,0.05
CNC(=O)CNC(=O)Nc1ccccc1OC,nt,0.1
CCCc1cc(=O)n2c3c(sc2n1)C(=O)N(Cc1ccccc1)C3=O,0.2,1.5
COc1ccc2[nH]cc(/C=C(/C#N)S(=O)(=O)c3ccccc3)c2c1,-0.8,-0.55
Cc1ccc(S(=O)(=O)NNC(=S)NCC2CCCO2)cc1 (centres undefined),nt,0
NC(=O)CCSCc1ccc(Cl)c(Cl)c1,-0.18,-0.45
CCn1c2ccccc2c2cc(CN3CCN(S(=O)(=O)c4ccc(C(C)(C)CC)cc4)CC3)ccc21,17,nt
O=C1C2CC(CN3CCCC[C@@H]23)[C@H]2CCCCN12 (some centres undefined),0.3,-0.45
Cn1cccc1/C=C1\C(=O)NC(=S)N(c2ccccc2)C1=O,-0.78,0.6
COc1cc(CNc2cccc(F)c2)cc(OC)c1OC,0.81,nt
Cc1ccc(NC(=O)CN(c2nccs2)S(=O)(=O)c2ccccc2)cc1,nt,-0.5
Cc1ccccc1C(=O)OCC(=O)c1sc2ccccc2c1C,-0.42,-0.5
O=C1ON(c2ccccc2)C(c2ccc3c(c2)OCO3)N1c1ccccc1 (centres undefined),0.025,-0.3
CCOc1ccccc1NC(=O)COC,0.51,-0.4
CCCCc1ccc(N/C=c2/c(C)c(C#N)c3nc4ccccc4n3c2=O)cc1,3.5,-0.75
CCN(CC)C(=O)Oc1ccc(Cl)c2cccnc12,nt,-0.1
O=C(Nc1ccc(Cl)cc1)Oc1ccccc1N1CCSCC1,0.27,1.3
O=C(COC(=O)CN1C(=O)C2CC=CCC2C1=O)Nc1ccc2c(c1)OCO2 (centres undefined),nt,-0.6
N#C/C(=C\c1ccc2c(c1)OCCO2)C(N)=S,nt,-1.1
O=C(CCN1C(=O)/C(=C/c2ccc3c(c2)OCO3)SC1=S)Nc1nc2ccccc2s1,-0.56,nt
COc1cccc(C(=O)c2cc3ccc(O)cc3oc2=O)c1,-6*,-0.3
O=C(CSc1nnnn1-c1ccccc1)Nc1ccc(-c2ccccc2)cc1,-1,-0.9
C=CCn1c(C)cc(C(C)(C)c2cc(C)n(CC=C)c2C)c1C,nt,-0.2
CC1(C)C2CCC1(C)C(N1CCN(Cc3ccccc3)CC1)C2 (centres undefined),-0.14,nt
Cc1cc(C)cc(N2C(=O)/C(=C/c3ccc4c(c3)OCO4)S(=O)(=O)C2c2cccc([N+](=O)[O-])c2)c1 (centres undefined),2.7,nt
O=C(CSc1ccccc1F)NCC(c1cccs1)N1CCOCC1 (centres undefined),nt,-0.3
CC(C)c1nnc(NC(=O)C(C)(C)C)s1,-0.23,0.8
S=c1[nH]nc(CN2CCCC2)o1,nt,0.8
COCCN1C(=O)c2ccccc2C(C(=O)NCCN2CCOCC2)C1c1cn(C)c2ccccc12 (centres undefined),-0.11,-1.3
CCSc1nc2ccc(N)cc2s1,nt,1.2
Cc1nn(C)c(=O)c2ccccc12,nt,-0.85
COC(=O)c1sc2ncc(-c3ncc(C(F)(F)F)cc3Cl)cc2c1N,0.45,nt
CCN1CCSc2ccc(C(=O)NCCN3CCOCC3)cc21,50,-0.2
CN(C)c1cccc(C(=O)NO)c1,-0.42,1.6
Cc1ccc2nc(Nc3nc(CSc4nnc(C)s4)cc(=O)[nH]3)nc(C)c2c1,1.2,0.85
O=C1CS(=O)(=O)N(Cc2ccccc2)c2ccsc21,0.59,-0.55
O=C(CS(=O)(=O)Nc1ccc(F)cc1Cl)Nc1ccc(F)cc1Cl,0.075,-0.7
Cc1nc2ccccc2[nH]1,nt,0.55
Cc1ccc(-c2csc3nc(Cc4ccccc4)oc(=O)c23)cc1,0.04,nt
CC1=C(C(=O)Nc2ccc(C(=O)O)cc2)SCCO1,-0.51,0.45
CC(C)(C)c1ccc2cc(C#N)c(C#N)cc2c1,17,-0.3
COc1cc2c(cc1NC(=O)C(C)Sc1nnc(C)c(=O)n1N)oc1ccccc12 (centres undefined),nt,1.5
Clc1snnc1COc1ccc2c(c1)OCO2,-0.49,-1.6
CC(Oc1ccccc1)C(=O)NC1CCCCC1 (centres undefined),0.23,0.7
CCOC(=O)c1oc2ccccc2c1CSc1nc2ccccc2n1CCC#N,nt,-0.05
O=[N+]([O-])c1ccc(Oc2ccc(Br)cc2)nc1,-0.24,nt
# Further records:
SMILES,CapD inh,AID504770
O=C(Cn1cnc2c(nnn2Cc2ccc(F)cc2)c1=O)c1ccc(Cl)cc1,-0.28,-0.1
Cc1ccc2c(CN3CCN(C(=O)C4Cc5ccccc5CN4S(C)(=O)=O)CC3)cc(=O)oc2c1 (centres undefined),0.73,0.55
CSc1sc(C(N)=O)c2c1-c1nocc1CC2,3.2,nt
N#CC(C#N)=NNc1ccc(-n2ccc(C(F)(F)F)n2)cc1,-2.5,-0.9
CCOC(=O)CCc1c(C)nc2ccc(C)cn2c1=O,-0.58,-0.25
CC(=O)N1c2ccccc2NC(=O)CC1c1ccccc1 (centres undefined),-0.24,nt
Cn1nc(C(=O)NCCc2ccc(F)cc2)c2ccccc2c1=O,nt,-0.85
COCCOC(=O)C1=C(C)NC2=C(C(=O)CC(c3ccc(OC)c(OC)c3)C2)C1c1cccc(Cl)c1 (centres undefined),28,nt
CCOC(=O)c1c(-c2ccco2)csc1NC(=O)COC(=O)CCc1nc2ccccc2c(=O)[nH]1,nt,-0.6
COc1cc(/C=C2\SC(=O)N(C)C2=O)ccc1OCC(=O)Nc1ccc(S(N)(=O)=O)cc1,nt,-0.2

# Individual results from the entries so far:
# Reading of Cc1ccc2c(CN3CCN(C(=O)C4Cc5ccccc5CN4S(C)(=O)=O)CC3)cc(=O)oc2c1 (centres undefined) under AID504770: 0.55
# Reading of CC(=O)N1c2ccccc2NC(=O)CC1c1ccccc1 (centres undefined) under CapD inh: -0.24
# Reading of COCCOC(=O)C1=C(C)NC2=C(C(=O)CC(c3ccc(OC)c(OC)c3)C2)C1c1cccc(Cl)c1 (centres undefined) under CapD inh: 28

# Later entries.
SMILES,CapD inh,AID504770
COCCn1cnc2c(sc3nc4c(cc32)COC(C)(C)C4)c1=O,nt,0.4
CCOc1cc(C(F)(F)F)cnc1/C(N)=N/OC(=O)NC,0.11,-0.2
CC1(C(=O)N2CCC3(CC2)C(=O)NCN3c2ccccc2)CCC(C(=O)O)C1(C)C (centres undefined),0.18,nt
C=CCn1cnnc1SCc1nnc(-c2ccco2)o1,nt,2
Cc1ccc(CSc2ncnc3c2oc2ccccc23)cc1,nt,0.3
S=c1[nH]nc(-c2ccncc2)n1C1CC1,nt,1.4
Cc1cccc2c(=O)c(NC(=O)NCC3CC3)c[nH]c12,93,0.25
CC(C)Oc1cc(-n2c(=S)[nH]c3ccccc3c2=O)c(Cl)cc1Cl,-0.51,nt
O=C(O)C1C2C=CC(C2)C1C(=O)Nc1ccc(C(=O)N2CCCCC2)cc1 (centres undefined),nt,-0.15
CCC(=O)c1cc2c(cc1N)OCCO2,-0.76,1.8
N#Cc1c(/N=C/c2ccco2)oc(-c2ccccc2)c1-c1ccccc1,nt,1.9
Cn1c(C(F)(F)F)nnc1S(=O)(=O)Cc1ccc(-c2csnn2)cc1,-0.29,1.9
COc1cc(N2CCCC2)c(OC)cc1CO,-0.17,0.3
NC(=O)C1CCN(C(=O)c2ccc3c(c2)nc(SCC(=O)c2ccccc2)n2c4ccccc4nc32)CC1,1.8,nt
CC1CCCCN1C(=O)c1cnc2sccn2c1=O (centres undefined),0.095,-1.5
O=C(COC(=O)c1c(F)cccc1Cl)NCC1CCCCC1,0.37,-0.1
O=C(O/N=C/c1c(-c2ccc(Cl)cc2)nc2sc3c(n12)CCCC3)C1CC1,-0.3,nt
O=C(Nc1ccc2c(c1)OCCO2)N1CCC(CN2CCc3ccccc3C2)CC1,-1.4,-1
CC1CCCCC1NC(=O)Cn1nc(-c2ccc(Cl)cc2)ccc1=O (centres undefined),-1.4,-0.2
CCOc1ccc(-c2csc(/C(C#N)=C/Nc3ccccc3OC)n2)cc1,0.2,0.4

# Looked up one by one from above:
SMILES,CapD inh,AID504770
O=C(Nc1ccc2c(c1)OCCO2)N1CCC(CN2CCc3ccccc3C2)CC1,-1.4,-1
CC1CCCCC1NC(=O)Cn1nc(-c2ccc(Cl)cc2)ccc1=O (centres undefined),-1.4,-0.2
NC(=O)C1CCN(C(=O)c2ccc3c(c2)nc(SCC(=O)c2ccccc2)n2c4ccccc4nc32)CC1,1.8,nt

# 4 structures from above, ordered by heavy-atom count, rising.
SMILES,CapD inh,AID504770
S=c1[nH]nc(-c2ccncc2)n1C1CC1,nt,1.4
CC1(C)C2CCC1(C)C(N1CCN(Cc3ccccc3)CC1)C2 (centres undefined),-0.14,nt
O=C(CS(=O)(=O)Nc1ccc(F)cc1Cl)Nc1ccc(F)cc1Cl,0.075,-0.7
NC(=O)C1CCN(C(=O)c2ccc3c(c2)nc(SCC(=O)c2ccccc2)n2c4ccccc4nc32)CC1,1.8,nt

# Other structures.
SMILES,CapD inh,AID504770
O=C1NC(=O)C(=Cc2ccc(-c3cc(C(=O)O)ccc3Cl)o2)C(=O)N1,1.4,0
S=c1[nH]nc(-c2cccs2)n1CC1CCCO1 (centres undefined),nt,-0.3
FC(F)(F)c1cccc(OCc2nn[nH]n2)c1,nt,-1
Cn1c(=O)c2c(nc(NC3CCCC3)n2C)n(C)c1=O,-0.47,-1.1
Cc1c(S(=O)(=O)N2CCCc3ccccc32)cnn1-c1ccccc1,1.7,0.1
COc1ccc(Br)c(-c2nc3ccccc3c(=O)o2)c1,-0.015,-1
CN1CC(=O)N(CCOc2ccccc2)C1=O,nt,-3.2
O=C(CSc1ccccc1)NCc1ccccc1,-0.12,0.5
CCc1cc(-c2n[nH]c(CCC(=O)O)c2-c2nc3ccccc3n2C)c(O)cc1O,0.52,-0.05
Cc1ccc(NC(=O)C/C(N)=N/O)cc1C,-0.095,-0.85
COc1ccccc1NS(=O)(=O)c1ccc2oc(SC)nc2c1,nt,-0.9
O=C(OCc1ccc([N+](=O)[O-])cc1)C1CCCN1C(=O)OCc1ccc(Cl)cc1[N+](=O)[O-] (centres undefined),0.45,nt
Cc1oc2c(c1C(N)=O)CCCC2,-0.06,2.2
O=c1cc(CN2CC=C(c3ccccc3)CC2)nc2scc(-c3ccccc3)n12,nt,-0.3
COc1ccc([N+](=O)[O-])cc1-c1ccc(/C=c2/sc3nc4cc(C)c(C)cc4n3c2=O)o1,0.51,nt
N#Cc1cccnc1N1CCN(C(=O)Nc2cccc3ccccc23)CC1,10,-0.8
COc1ccc(OC)c(NC(=O)CSc2nc3ccccc3c(=O)n2NC(=O)CCc2c[nH]c3ccccc23)c1,-0.81,nt
CC1CCC(NC(=O)c2ccc(N3C(=O)CCC3=O)cc2)CC1 (centres undefined),nt,1.6
CC1=C(c2ccc(C)cc2)[N+](=O)C(C)(C)N1[O-],0.14,-0.55
CN1CCC/C1=C1\C(=O)N(c2ccccc2)N=C1NC(=O)Nc1cccc(Cl)c1,nt,-0.7
CC1(C)CC(=O)C2=C(C1)c1c(ccc3ncccc13)NC2c1ccc(Cl)cc1 (centres undefined),14,nt
CCOc1ccc(C2C(N3C(=O)c4ccccc4C3=O)C(=O)N2c2ccc(Br)c(C)c2)cc1 (centres undefined),-0.32,nt
CC1=C(C(=O)Nc2ccccn2)C(c2ccc(OCc3ccccc3)cc2)n2nnnc2N1 (centres undefined),-0.19,nt
O=C1c2ccccc2-c2n[nH]c(=S)nc21,nt,-2.6*
CCCCOc1ccc(C2Nc3ccccc3C(=O)N2c2ccc(F)c(Cl)c2)cc1 (centres undefined),18,nt
CCN(CC)CCCN1C(=O)CSC1c1ccc2c(c1)OCO2 (centres undefined),0.075,1.4
CN(CCC#N)C(=S)Nc1ccc(S(=O)(=O)N2CCOCC2)cc1,nt,0.35
CCOC(=O)C1=C(C)NC2(O)CC1C1COC2O1 (centres undefined),0.26,-0.45
Cc1ccc(C)c(NC(=O)C(Sc2cccc[n+]2[O-])c2ccccc2)c1 (centres undefined),0.38,-0.05
CCC(C)NC(=O)CSc1nc2n[nH]c(C)c2c(=N)n1-c1ccc(OC)cc1 (centres undefined),-0.22,-0.85

# Screens deposited in PubChem BioAssay by ICCB-Longwood Screening Facility, Harvard Medical School.

# Only part of the results is shown (hit frequency here may not be typical).
